# Source: PubChem (National Center for Advancing Translational Sciences (NCATS))
# VACV Venus inh – inhibitors of vaccinia virus (Venus reporter). Vaccinia virus Venus reporter expression, fluorescence. Potency, µM (top dose mostly 36.5 µM), without a hit: at the top dose activity change, negative = inhibition, usual class: inhibitors. 330,000 compounds, 0.46% hits; active means well fitted inhibition curve with a large enough effect; inconclusive means small, poorly fitted or top-dose-only effect; inactive means no such curve, though single readings can be large or run the other way; tested in A549 cells; further: nearly all actives have a fitted effect of over 30% in size; inactives centre near -10
# Vaccinia mCherry – vaccinia inhibition (mCherry reporter); AID 720579; Vaccinia virus mCherry reporter infection, fluorescence; about a quarter of the inactives have no number; 310,000 compounds, 0.63% hits; Potency, µM (series often up to 36.5 µM), for the others: top-dose activity change, negative = inhibition, usual class: inhibitors; active = well fitted inhibition curve with a large enough effect; inconclusive = small, poorly fitted or top-dose-only effect; inactive = no such curve, though single readings can be large or run the other way; tested in A549 cells; further: nearly all actives have a fitted effect of over 35% in size; inactives centre near -10
# * = called active by the depositor; i = inactive; ? = inconclusive; . = no result given; & = joins results of further samples; [ ] = another dose, or the depositor's remark. On the % scale 0 is the no-effect control and ±100 the full control effect; potency means the concentration at half of the fitted maximal effect. This is a random part of the collection; overall some 0.82% were active at least once.
# A first look (2 entries):
canonical_smiles,VACV Venus inh,Vaccinia mCherry
c1ccc(Cc2nn[nH]n2)cc1,5%,-4%
Cc1ccc(SCCN2CCN(CCc3ccccc3)CCC2=O)cc1,-18%,-1%

# The list itself, from the start:
canonical_smiles,VACV Venus inh,Vaccinia mCherry
c1ccc(Cc2nn[nH]n2)cc1,5%,-4%
Cc1ccc(SCCN2CCN(CCc3ccccc3)CCC2=O)cc1,-18%,-1%
CC1C(=O)N2CCCc3cc(NS(=O)(=O)c4ccc([N+](=O)[O-])cc4)cc1c32 (configuration not stated),-27%,-27%
O=C1CC2c3ccccc3C1C1C(=O)N(CCO)C(=O)C21 (configuration not stated),-15%,i
CN(C1CCCCC1)S(=O)(=O)c1ccccc1,-2%,-3%
CCN(C(=O)Nc1cccc(Cl)c1)c1ccccc1,-16%,i
CC1CC(C)CC(C)C(O)C(C#N)=CC=CCC(C2CCCC2C(=O)O)OC(=O)CC(O)C(C)C1 (configuration not stated),1.1µM*,?
O=C(O)c1cccc(OCCN2CCCC2=O)c1,-13%,0%
COCCNc1nc(Oc2cccc(NC(C)=O)c2)c2sc(-c3ccccc3)cc2n1,?,-9%
Cc1ccccc1CNC(=O)c1ccc(CSc2nc3cccnc3n2Cc2ccccc2)cc1,-4%,-12%
CCC(Oc1ccc2ccccc2c1)C(=O)O (configuration not stated),-11%,.
N=c1ncn(CC(O)CN2CCOCC2)c2nc(N3CCOCC3)[nH]c12 (configuration not stated),-3%,-12%
O=S(=O)(NCC1CCCO1)c1cnc(Cl)c(Cl)c1 (configuration not stated),-13%,-2%
CC1(Oc2cccc(F)c2)CCN(Cc2csc3ccccc23)C1 (configuration not stated),8%,3%
c1cnc(N2CCSCC2)nc1,-7%,-11%
COc1ccc([N+](=O)[O-])cc1NC(=O)CSc1ccc2ccccc2c1,-2%,-14%
CC1CCCN1CCC(C(N)=O)(c1ccccc1)c1ccccc1 (configuration not stated),11%,-14%
O=C(NC1CCCCC1)c1ccc(CSc2nc3ccncc3n2Cc2ccccc2)cc1,-27%,-4%
S=C(NC1CCCCC1)N1CCn2cccc2C1c1cccnc1 (configuration not stated),-2%,-5%
COc1ccc(NC(=O)c2ccc3[nH]c(C)c(C)c3c2)c(OC)c1,-9%,-29%
COC(=O)c1ccc(C(=O)OC)c(NC(=S)N2CCCC(C)C2)c1 (configuration not stated),-9%,-7%
COc1cccc(CNC(=O)C2CCN(C(=O)N(C)C)CC2)c1,-6%,-13%
O=C(Cn1cc2c(n1)CCCCC2)N1CCCCC1,-5%,-5%
O=C(Nc1c(S(=O)(=O)c2ccccc2)csc1Br)c1ccccc1Cl,-17%,i
CCOC(=S)N/C(=N\S(=O)(=O)c1ccc(C)cc1)c1ccccc1,-3%,i
CCCc1cc(=O)[nH]c(SCC(=O)Nc2cc(S(=O)(=O)N3CCOCC3)ccc2N(CC)CC)n1,-1%,i
CC1(C)CC(=O)C=C(NCCN2CCN(C(=S)Nc3ccc(F)cc3)CC2)C1,-10%[7.34 µM],i[7.34 µM]
CCOC1=C2[C@H](c3ccccc3)N(S(=O)(=O)c3ccccc3)C[C@H]2n2c(=O)n(-c3ccccc3)c(=O)n2C1,0%,26%
Cc1ccc2c(c1)C(=O)C(=O)N2CC1COc2ccccc2O1 (configuration not stated),-16%,-14%
COc1ccc(-c2[nH]c(-c3ccc(F)cc3)nc2SCC(=O)NCc2ccco2)cc1OC,-17%,0%
C=CCOC(=O)C(=O)/C=C/c1coc2ccccc2c1=O,?,i
Cc1cccc(Nc2nnc(SCC(=O)Nc3ccccc3[N+](=O)[O-])s2)c1C,-21%,-21%
CC(C)Oc1ccc(C2NC(=O)c3ccccc3O2)cc1 (configuration not stated),-2%,-9%
O=C(C1CC12CCN(Cc1cccc3cccnc13)CC2)N1CCN(Cc2cccs2)CC1 (configuration not stated),-5%,-11%
CCCc1ccc(OC(C)C(=O)Nc2sc3c(c2C(=O)OC)CCCCC3)cc1 (configuration not stated),-10%[7.34 µM],-9%[7.34 µM]
Cc1cc2oc(C(=O)NCc3ccccc3)cc(=O)c2cc1C,-19%,-12%
CC1(C)CN(CCc2ccccc2)C(=O)[C@H]1CC(=O)Nc1ccc(Br)cc1,-13%,i
Cc1csc(N2CCCC2=O)n1,-5%,i
Cc1nonc1CN(C)C(=O)c1cc(COc2ccc(F)cc2Cl)on1,-22%,i
CC(=O)Nc1ccc(S(=O)(=O)NNC(=S)NCc2ccco2)cc1,-16%,-10%
CN(C(=O)CCc1ccccc1F)C1CCCN(Cc2ccccc2F)C1 (configuration not stated),-1%,-1%
COC(=O)c1ccc(CSc2nc(C)nc3c2c(=O)n(C)c(=O)n3C)o1,-7%,-13%
COc1cc(NC(=O)Cc2nn(C)c(=O)c3ccccc23)cc(OC)c1,?,.
COc1ccc(C(=O)Nc2ccccc2C(=O)N/N=C/c2ccc(O)c(OC)c2)cc1,-19%,.
CC(C)OC(=O)C(C)Oc1ccc(C(=O)NCCc2ccccc2)cc1 (configuration not stated),-4%,-12%
CC(=O)Oc1ccc(Cn2c(C)c(C(=O)NCCC#N)sc2=O)cc1,5%,i
CC(C)(C)c1ccc(C(=O)Nc2cc(-c3ccccc3)nn2-c2ccccc2)cc1,-8%,1%
COCCCNC(=O)c1oc2c(c1C)-c1nn(Cc3ccccc3Cl)cc1CC2,-21%,-28%
CC(Nc1ccccc1N1CCCCC1)C(=O)N1CCc2ccccc21 (configuration not stated),-16%,-3%
CCn1cc(C(=O)NC2CC(C)(C)Cc3c2cnn3-c2cccc(F)c2)cn1 (configuration not stated),-15%,i

# Remaining list, next part.
canonical_smiles,VACV Venus inh,Vaccinia mCherry
CC(C)C(Nc1ccc(S(=O)(=O)N2CCOCC2)cc1[N+](=O)[O-])C(=O)O (configuration not stated),-8%,9%
Cc1ccc(-c2csc(NCCn3c(-c4ccncc4)nc4ccccc43)n2)cc1,?,?
Cc1ccc(-c2cc(C(=O)Nc3ccc(S(=O)(=O)Nc4ncccn4)cc3)c3ccccc3n2)cc1,-11%,-11%
Cc1cccc(NC2=C(Cl)C(=O)OC2OC(C)C)c1 (configuration not stated),-8%,5%
O=C(Nc1cccc(C(=O)OCc2cc(=O)n3c4c(sc3n2)CCCC4)c1)c1ccc(Cl)cc1,-18%,-16%
CC1=NN(c2ccccc2)C(=O)C1C(=O)c1ccccc1 (configuration not stated),-13%,-8%
Cc1cc(=O)[nH]c2nnc(SCc3ccc(Cl)cc3)n12,-6%,-15%
O=C(O)c1ccc(C2SCC(=O)N2Cc2ccccc2)cc1 (configuration not stated),-3%,.
CCOC(=O)c1c(/N=C/c2c(O)n(-c3cccc(C)c3)c(=O)[nH]c2=O)sc2c1CCCC2,-9%,i
COc1ccccc1NC(=O)C(=O)/C=C(\O)c1ccccc1,-20%,i
Cc1ccc(C(O)P(=O)(Oc2ccccc2)Oc2ccccc2)cc1 (configuration not stated),-5%,i
C=CCC1NS(=O)(=O)O[C@H](CCCC)[C@@H]1O (some centres not stated),-5%,i
CCOC(=O)C1CCCN(C(=O)c2cc3cc(OC)c(OC)cc3[nH]2)C1 (configuration not stated),-6%,-8%
Cc1c(Cl)cccc1NC(=O)CC(c1ccc(F)cc1)N1Cc2ccccc2C1=O (configuration not stated),-5%,-10%
N#Cc1ccc(OC(=O)c2cnccn2)cc1,-2%,i
O=C(COC(=O)CC1SC(N2CCCC2)=NC1=O)Nc1ccc(Br)cc1 (configuration not stated),-7%,-12%
C[C@H]1CCCCO[C@H](CN(C)CC2CCCCC2)[C@@H](C)CN([C@@H](C)CO)C(=O)c2cc(NS(=O)(=O)c3ccccc3)ccc2O1,?,-6%
COc1cccc(CC(Cc2nc3ccccc3[nH]2)c2nc3ccccc3[nH]2)c1 (configuration not stated),2%,-12%
O=C(NCC1CCCO1)C1CC1(c1ccccc1)c1ccccc1 (configuration not stated),-12%,i
COc1cccc(NC(=O)CN2CCN(S(=O)(=O)c3ccc(C(C)C)cc3)CC2)c1,-16%,-7%
O=C(Nc1ccc(-n2ccc(C(F)(F)F)n2)cc1)c1cccs1,-21%,i
C/C(=N\NC(=O)CCCOc1ccc(Cl)cc1C)c1ccc(C)o1,-9%,-14%
COCCNC(=O)C1(C)CCN(C(=O)c2cc(C)n(C(C)(C)C)n2)C1 (configuration not stated),-14%,5%
CCOC(=O)c1ccc(N2C(=O)CC(Nc3ccc(O)cc3)C2=O)cc1 (configuration not stated),-2%,?
COc1cc(CCCN2C(N)=NC[C@@H]2c2ccccc2)cc(OC)c1OC,-11%,-12%
COc1cc(C2CC(=O)N(c3ccccc3)C3=C2C(=O)OC3)cc(OC)c1OC (configuration not stated),3%,5%
CCOc1ccc2c(c1)c(N=O)c(O)n2C,-18%,-2%
Cc1cc([N+](=O)[O-])nn1CC(=O)NC(C)c1ccccc1 (configuration not stated),-13%,-1%
O=C(NC1CCCC1)C(c1cccs1)N(Cc1ccco1)C(=O)Cn1nnc(-c2cccs2)n1 (configuration not stated),-11%,-18%
COc1ccc(C(=O)Nc2cccc(OCc3cc(=O)n4c5c(sc4n3)CCCC5)c2)cc1,3%,4%
CCC(c1nc2ccccc2[nH]1)N(C(=O)C1=NNC(=O)CC1)c1ccccc1 (configuration not stated),7%,18%
CCN(C(=O)CSc1n[nH]c(N)n1)c1cccc2ccccc12,-4%,i
CCOC(=O)C12CNC(=O)C(C(=O)OCC)(CNC1=O)C2,-12%,.
Cc1ccc2nc(Cl)c(C3CC(c4ccco4)=NN3C(=O)CCCC(=O)O)cc2c1 (configuration not stated),-16%,-8%
CCOc1ccc(/C=N/NC(=O)C(C)Sc2ccccn2)cc1OCC (configuration not stated),-10%,-3%
COc1ccc(Cn2nnnc2C(c2cc(OC)ccc2OC)N2CCC(C(N)=O)CC2)cc1 (configuration not stated),-19%,.
Nc1nnc(CCN2CCCCC2)s1,-8%,.
CCN(CCN1CCCC1)C(=O)C1CCC(=O)N(CCCN2CCOCC2)C1 (configuration not stated),-12%,-8%
COc1ccc(C(=O)/C=C/c2ccc(OC3CSC3)cc2)cc1OC,?,?
O=C(NCC1CCCO1)c1ccccc1-c1nc(-c2ccc(F)cc2)no1 (configuration not stated),-22%,.
Cc1ccc(S(=O)(=O)N2CCCCC2)cc1NC(=O)CCc1nc2ccccc2c(=O)[nH]1,-9%,-16%
NC(=O)CSc1nc2ccc([N+](=O)[O-])cc2[nH]1,-5%,-16%
COc1ccc(C(NC(=O)C2C3C=CC(C3)C2C(=O)O)c2ccccc2)cc1 (configuration not stated),-3%,-2%
CC(=O)Nc1ccc(NC(=O)CCSCCc2ccccn2)cc1,-12%&6%,-26%&-4%
CC1CCc2c(sc(NC(=O)c3ccc(-c4ccccc4[N+](=O)[O-])o3)c2C#N)C1 (configuration not stated),-21%,-15%
CC(C)(C)SCCNC(=O)CN(c1ccccc1)S(=O)(=O)c1ccc(F)cc1,-20%,i
CCN(CC)CCCNC(=O)c1cc2nc3c(c(C(F)(F)F)n2n1)CCc1ccccc1-3,-7%,-16%
O=C(NC1CCCCC1)C(c1ccc(F)cc1)N(C(=O)c1csnn1)C1CCCC1 (configuration not stated),4%,-2%
O=C(CC1c2ccccc2Oc2ccccc21)N1CCN(c2ccccn2)CC1,-14%,-2%
CCCCC(=O)OCc1nc(N)nc(Nc2ccccc2C)n1,-18%,-1%

# Next section
canonical_smiles,VACV Venus inh,Vaccinia mCherry
COCCNC(=O)C1(C)Cc2c(-c3ccc4c(c3)OCO4)ccnc2O1 (configuration not stated),-23%,2%
CCn1c(=O)c2ccccc2n(Cc2cccc([N+](=O)[O-])c2)c1=O,-8%,i
Cc1ccc(N(Cc2cc3ccccc3[nH]c2=O)C(=O)c2cccc(Cl)c2)cc1,-19%,-23%
NC(=O)C1CCN(C(=O)CNC(=O)c2ccc(Br)o2)CC1,-6%,i

# Compound profiles, from the list above.
# Cc1ccc(N(Cc2cc3ccccc3[nH]c2=O)C(=O)c2cccc(Cl)c2)cc1 is listed as VACV Venus inh = -19%; Vaccinia mCherry = -23%
# NC(=O)C1CCN(C(=O)CNC(=O)c2ccc(Br)o2)CC1 is listed as VACV Venus inh = -6%; Vaccinia mCherry = i

# Rewritten with values under each structure: entries from further up.
# Under each structure: VACV Venus inh | Vaccinia mCherry
CCn1c(=O)c2ccccc2n(Cc2cccc([N+](=O)[O-])c2)c1=O
→ -8% | i
Cc1ccc(N(Cc2cc3ccccc3[nH]c2=O)C(=O)c2cccc(Cl)c2)cc1
→ -19% | -23%
